Bioassay records as filed in PubChem BioAssay.
RanGTP-Impb inh – inhibitors of RanGTP-importin-beta interaction, primary screen, biochemical, FRET, CFP-Ran, YFP-importin-beta, homogeneous; cell-free CFP-Ran/YFP-importin-beta FRET ratio; inhibition, % (no concentration beside the values); 1.1% of 300,000 active;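 active means most replicates above 15%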;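 further: 0% = DMSO wells and 100% = Ran loaded with GDP instead of GTP; wells of about 40 µL received 100 nL stock; the first replicate is given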
Beta2AR agonist – agonists of human beta-2 adrenergic receptor inducing internalization; P07550; Am2.2-beta2AR cells, FAP receptor internalization, flow cytometry; reference of the scale not given here; response, % (test concentration not listed); 0.43% of 340,000 active;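 active means response above a set limit, near 3 SD of response in nonfluorescent compounds, cut at about 42% in these data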;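 further: stock transfer was 100 nL into about 11 µL; a reference agonist was the positive control; negative values mostly stem from fluorescent compounds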
Target sequence (P07550 whole entry, looked up): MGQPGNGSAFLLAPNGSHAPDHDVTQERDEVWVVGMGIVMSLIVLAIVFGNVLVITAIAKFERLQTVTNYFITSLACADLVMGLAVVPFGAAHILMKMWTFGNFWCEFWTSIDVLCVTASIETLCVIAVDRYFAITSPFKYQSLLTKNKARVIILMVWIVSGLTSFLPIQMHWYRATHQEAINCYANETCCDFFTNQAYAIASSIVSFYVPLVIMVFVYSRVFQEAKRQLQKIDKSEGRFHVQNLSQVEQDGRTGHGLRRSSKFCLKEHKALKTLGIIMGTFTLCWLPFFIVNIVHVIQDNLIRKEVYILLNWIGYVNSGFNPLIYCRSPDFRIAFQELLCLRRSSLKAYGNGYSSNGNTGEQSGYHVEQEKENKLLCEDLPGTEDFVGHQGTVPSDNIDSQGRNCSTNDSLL
HNF4A DNA FP – change in binding of human HNF4 alpha to DNA. P41235. HNF4a-FITC DNA binding, fluorescence polarization, 1 h. activity change, % at 10 µM. 0.3% of 360,000 active. AID 1224865; in the data active means activity change above about 30%, passing the limit was not always enough;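 further: controls were the assay level and a saturating level of protein; the project sought stronger binding though the title names inhibitors; some compounds called inactive have numbers as strong as hits; positive values seem to mean higher polarization but the record does not say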
Target sequence (P41235 whole entry, looked up): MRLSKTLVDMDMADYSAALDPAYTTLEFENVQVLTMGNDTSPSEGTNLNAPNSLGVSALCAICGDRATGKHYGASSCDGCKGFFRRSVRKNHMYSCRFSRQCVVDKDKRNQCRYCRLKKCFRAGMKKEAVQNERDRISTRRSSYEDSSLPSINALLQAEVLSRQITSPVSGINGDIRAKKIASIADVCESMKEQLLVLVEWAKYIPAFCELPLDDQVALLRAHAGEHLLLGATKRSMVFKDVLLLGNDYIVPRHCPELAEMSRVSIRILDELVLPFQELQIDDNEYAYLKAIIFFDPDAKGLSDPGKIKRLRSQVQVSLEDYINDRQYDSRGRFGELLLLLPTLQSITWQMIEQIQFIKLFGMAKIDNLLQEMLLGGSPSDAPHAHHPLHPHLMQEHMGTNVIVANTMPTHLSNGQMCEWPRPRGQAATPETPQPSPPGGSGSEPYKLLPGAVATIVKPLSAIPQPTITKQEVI
Calb FLC – affects C. albicans growth with fluconazole; growth inhibition, % (concentration not given with the values); C. albicans CaCi-2 (fluconazole-resistant clinical isolate) + fluconazole, Alamar Blue growth, 48 h; 0.57% of 300,000 active;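 active means most replicates above 75%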;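 further: all wells also contain fluconazole at 8 µg/ml as a sub-toxic cotreatment; 0% = median of DMSO wells and 100% = median of geldanamycin control wells; wells of about 8 µL received 7.5 nL stock; the first replicate is given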
LANA-H2A inh – blocks KSHV LANA binding to histone H2A/H2B. 0.6% of 320,000 active. cell-free LANA-H2A/H2B peptide, fluorescence polarization. inhibition, % (concentration not given with the values). Q9QR71. AID 2629; in the data active means inhibition mostly above about 10%, no sharp cut-off; inactive means mostly below about 6.7%;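 further: stock transfer was 7.5 nL into about 10 µL; 0% = median of vehicle wells and 100% = median of positive control wells; one replicate is shown; the record names a cut of 25% in any replicate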
Vif TR-FRET – HIV-1 Vif–A3G interaction blockers – biochemical, TR-FRET, GST-Vif 1-94, biotin-A3G peptide, dose response retest, primary screen (AID 1117319); TR-FRET GST-Vif / biotin-A3G peptide binding; higher % means a stronger effect; test concentration not given here; strong numbers were not always called active; inhibition, %, or IC50 in µM where a hit was titrated; 0.57% of 260,000 active;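 active means above the screen mean plus three standard deviations and confirmed in dose response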;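 further: Vif residues 1-94 fused to GST binding biotinylated APOBEC3G peptide 110-148; 0% = full assay without inhibitor and 100% = GST in place of GST-Vif; retest series ran down from 100 µM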
ALR inh – blocks human ALR sulfhydryl oxidase activity. AID 485317. 3.8% of 290,000 active. purified ALR, DTT oxidation, H2O2 HRP-luminol luminescence. P55789. inhibition, % (concentration not given with the values);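 active means mean and each replicate at 75% or more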;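 further: stock transfer was 7.5 nL into about 7.5 µL; 0% = neutral wells and 100% = wells with inactivated enzyme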
Target sequence (P55789 whole entry, looked up): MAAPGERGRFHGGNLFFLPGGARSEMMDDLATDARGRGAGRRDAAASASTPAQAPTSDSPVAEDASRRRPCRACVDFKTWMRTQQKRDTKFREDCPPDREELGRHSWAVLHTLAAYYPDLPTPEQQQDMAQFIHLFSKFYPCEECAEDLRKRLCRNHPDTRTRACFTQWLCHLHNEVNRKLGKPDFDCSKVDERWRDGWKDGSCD
* = called active by the depositor.

How did Cc1cc(C(=O)NNC(=O)CN2C(=O)NC3(CCCCC3)C2=O)c(C)o1 do in these assays?
Beta2AR agonist: 2.6; HNF4A DNA FP: -0.8; LANA-H2A inh: 0.7; Vif TR-FRET: 2.0%

Results for Cc1cccc(C)c1OC(=O)Cc1ccccc1[N+](=O)[O-] ?
RanGTP-Impb inh: -3.4; Beta2AR agonist: 7.8; HNF4A DNA FP: -0.1; Calb FLC: 7.2; LANA-H2A inh: -0.9; ALR inh: 1.2

How did O=C(CC(=O)N/N=C/c1c(Cl)cccc1Cl)NCc1cccnc1 do in these assays?
RanGTP-Impb inh: -3.0; Beta2AR agonist: -3.8; HNF4A DNA FP: -3.0; Calb FLC: -1.5; LANA-H2A inh: -4.8; Vif TR-FRET: -1.0%; ALR inh: -4.7

How did O=C(Nc1ccncc1Cl)c1ccncc1 do in these assays?
RanGTP-Impb inh: -2.3; Beta2AR agonist: -4.5; HNF4A DNA FP: -0.5; Calb FLC: 1.6; LANA-H2A inh: 0.1; ALR inh: 2.4

What do the screens show for `COc1ccc(C(=O)N/N=C/c2c(C)nn(-c3ccccc3)c2OC)cc1`?
RanGTP-Impb inh: 0.1; Beta2AR agonist: -1.5; HNF4A DNA FP: 2.2; Calb FLC: 2.4; LANA-H2A inh: 4.8; ALR inh: 2.8

What do the screens show for `CCC(C)OC1OC(CO)C(O)C(O)C1NC(C)=O` (configuration not stated)?
RanGTP-Impb inh: 3.1; Beta2AR agonist: 10.7; HNF4A DNA FP: 1.1; Calb FLC: 3.9; LANA-H2A inh: -5.8; ALR inh: -11.1

Results for CCc1nc2scc(-c3ccccc3)c2c(=O)n1N ?
RanGTP-Impb inh: -3.8; Beta2AR agonist: -5.2; HNF4A DNA FP: -1.2; Calb FLC: -7.1; LANA-H2A inh: 0.5; Vif TR-FRET: -1.0%; ALR inh: 1.8

How did CCS(=O)(=O)N1CCC(N2CCN(c3ccccc3)CC2)CC1 do in these assays?
RanGTP-Impb inh: 0.5; Beta2AR agonist: 5.5; HNF4A DNA FP: 0.3; Calb FLC: 1.5; LANA-H2A inh: -5.8; ALR inh: 50.1

How did CCOc1ccc(N2CC(C(=O)Nc3ccncc3)CC2=O)cc1 (configuration not stated) do in these assays?
RanGTP-Impb inh: -1.9; Beta2AR agonist: 8.3; HNF4A DNA FP: -0.9; Calb FLC: -5.4; LANA-H2A inh: 3.4; Vif TR-FRET: -5.2%

How did S=C(NN=Cc1ccccn1)N(Cc1ccccn1)Cc1ccccn1 do in these assays?
Beta2AR agonist: -12.5; HNF4A DNA FP: -2.5; Vif TR-FRET: 4.3%

Results for O=C(NCc1ccccc1)c1cnc(-c2ccccn2)nc1C(F)(F)F ?
RanGTP-Impb inh: -0.5; Beta2AR agonist: 4.9; HNF4A DNA FP: -3.7; Calb FLC: 31.3; LANA-H2A inh: -2.0; Vif TR-FRET: 2.9%; ALR inh: -3.6

How did Cc1cc(C)c(S(=O)(=O)N2CCOC2CNC(=O)C(=O)NCCCn2ccnc2)c(C)c1 (configuration not stated) do in these assays?
RanGTP-Impb inh: 0.9; Beta2AR agonist: 8.5; HNF4A DNA FP: -1.6; Calb FLC: -5.4; LANA-H2A inh: 6.2; Vif TR-FRET: -14.3%; ALR inh: -2.2

How did CC1(C)C=Cc2c(ccc3c2OC[C@H](c2ccc(O)cc2O)C3)O1 do in these assays?
Beta2AR agonist: 6.4; HNF4A DNA FP: -3.9; LANA-H2A inh: 2.3; ALR inh: 58.0

What do the screens show for `CCOC(=O)C1=C(COc2ccccc2)NC(=O)NC1c1ccc2ccccc2c1` (configuration not stated)?
RanGTP-Impb inh: -5.0; Calb FLC: 1.0; LANA-H2A inh: -0.4; ALR inh: -1.4

What do the screens show for `Cc1cccc(C)c1Nc1nnc(SCC(=O)NC2CCS(=O)(=O)C2)s1` (configuration not stated)?
RanGTP-Impb inh: -0.6; Beta2AR agonist: -1.1; HNF4A DNA FP: -1.4; Calb FLC: -20.7; LANA-H2A inh: 0.3; Vif TR-FRET: -8.8%; ALR inh: -16.9

Results for Cc1c(NC(=O)Nc2ccccc2C(F)(F)F)c(=O)n(-c2ccccc2)n1C ?
RanGTP-Impb inh: 2.6; Beta2AR agonist: -1.9; HNF4A DNA FP: 0.6; Calb FLC: 13.9; LANA-H2A inh: 2.8; Vif TR-FRET: 5.5%; ALR inh: 0.9

Results for Cc1cc(NC(=O)CSc2nc(N)c(NC(=O)c3ccco3)c(=O)[nH]2)no1 ?
RanGTP-Impb inh: 4.2; Beta2AR agonist: -1.4; HNF4A DNA FP: 4.3; Calb FLC: -3.6; LANA-H2A inh: -1.0; ALR inh: 3.1

What do the screens show for `COc1ccc(-c2c(C#N)c(SCC(=O)Nc3ccccc3)nc3c2CCCC3)cc1`?
RanGTP-Impb inh: -1.3; Beta2AR agonist: -0.5; HNF4A DNA FP: -1.9; Calb FLC: 5.4; LANA-H2A inh: -1.3; ALR inh: -2.7

How did Cc1nc(-c2ccc(F)cc2)c(CC(=O)Nc2ccc(C)c(S(=O)(=O)N3CCOCC3)c2)s1 do in these assays?
RanGTP-Impb inh: 5.7; Beta2AR agonist: 3.7; HNF4A DNA FP: 0.9; Calb FLC: 6.2; LANA-H2A inh: -2.9; ALR inh: -5.2

Results for CCCOc1ccc(N2C(=O)CC(N(CCc3ccc(OC)c(OC)c3)C(=S)Nc3ccccc3)C2=O)cc1 (configuration not stated) ?
RanGTP-Impb inh: -8.3; Beta2AR agonist: -2.0; HNF4A DNA FP: -4.0; Calb FLC: 13.7; LANA-H2A inh: -7.6; ALR inh: -1.4

Results for CC1(C(=O)NC2CCCC2)CCC(=O)N1Cc1ccc2c(c1)OCO2 (configuration not stated) ?
RanGTP-Impb inh: -1.6; Beta2AR agonist: 8.8; HNF4A DNA FP: 2.9; Calb FLC: 4.0; LANA-H2A inh: -2.6; Vif TR-FRET: 21.0%; ALR inh: -2.3

Results for COCc1cc(C)nc(OC)c1C(N)=O ?
RanGTP-Impb inh: -4.1; Beta2AR agonist: 7.4; HNF4A DNA FP: -0.5; Calb FLC: 13.6; LANA-H2A inh: 8.5; ALR inh: -7.2

How did N#Cc1nc(COc2ccc(F)cc2)oc1N1CCC(Cc2ccccc2)CC1 do in these assays?
RanGTP-Impb inh: -1.4; Beta2AR agonist: 0.5; HNF4A DNA FP: -0.8; Calb FLC: -8.3; LANA-H2A inh: -0.4; Vif TR-FRET: -8.3%; ALR inh: -11.0

What do the screens show for `N#Cc1cccc(CN2CCC(=O)N([C@H](CO)c3ccccc3)CC2)c1`?
RanGTP-Impb inh: 2.6; Beta2AR agonist: -4.9; HNF4A DNA FP: -1.3; Calb FLC: -2.2; LANA-H2A inh: -0.4; ALR inh: -0.9

What do the screens show for `CSc1ccc(CN(C)CC(=O)NCc2ccccc2)cc1`?
RanGTP-Impb inh: -0.9; Beta2AR agonist: 2.2; HNF4A DNA FP: 0.1; Calb FLC: -16.7; LANA-H2A inh: 4.7; Vif TR-FRET: 0.0%; ALR inh: -6.0

Results for O=C(NC(NC(=S)Nc1ccccc1C(=O)O)C(Cl)(Cl)Cl)c1ccccc1 (configuration not stated) ?
RanGTP-Impb inh: 6.7; Beta2AR agonist: 3.4; HNF4A DNA FP: -0.3; Calb FLC: 7.7; LANA-H2A inh: 0.4; Vif TR-FRET: 11.7%; ALR inh: 53.8

What do the screens show for `COc1ccc(N(CC(=O)NC(C)(C)C)C(=O)CCC(=O)Nc2nccs2)cc1`?
RanGTP-Impb inh: -2.3; Beta2AR agonist: -8.9; HNF4A DNA FP: -2.8; Calb FLC: -1.9; LANA-H2A inh: 2.2; ALR inh: -0.9

Results for CC1CCCC(C)N1C(=O)/C=C/c1ccc(S(=O)(=O)N2CCOCC2)cc1 (configuration not stated) ?
Beta2AR agonist: 5.1; HNF4A DNA FP: -2.0; Vif TR-FRET: -2.3%

What do the screens show for `COc1ccc(C(=O)Nc2cc(C(=O)O)cc(C(=O)O)c2)cc1Cl`?
RanGTP-Impb inh: -5.2; Beta2AR agonist: -4.9; HNF4A DNA FP: -4.9; Calb FLC: -5.3; LANA-H2A inh: -4.1; Vif TR-FRET: -1.5%; ALR inh: 1.8

Results for CCn1c(=O)c(=O)[nH]c2cc(C(=O)N3CCN(Cc4ccc5c(c4)OCO5)CC3)ccc21 ?
RanGTP-Impb inh: -3.1; Beta2AR agonist: -2.2; HNF4A DNA FP: 6.9; Calb FLC: -3.4; LANA-H2A inh: 1.8; Vif TR-FRET: -7.3%; ALR inh: -13.4

Results for CC(=O)N1CCc2cc(S(=O)(=O)N3CCc4ccccc43)ccc21 ?
RanGTP-Impb inh: 0.5; Beta2AR agonist: 7.3; HNF4A DNA FP: -3.1; Calb FLC: 12.9; LANA-H2A inh: -1.7; Vif TR-FRET: -12.9%; ALR inh: -6.7

Results for COc1ccc(CN2CCN(c3cccc(C)c3C)CC2)cc1OC ?
RanGTP-Impb inh: 2.5; Beta2AR agonist: -3.3; HNF4A DNA FP: -1.1; Calb FLC: -6.6; LANA-H2A inh: 2.2; Vif TR-FRET: -2.3%; ALR inh: -7.7

Results for CCCN(CCC)C(=O)Cn1c(=O)n(CCCC(=O)NCc2ccco2)c(=O)c2sccc21 ?
RanGTP-Impb inh: -1.3; Beta2AR agonist: -0.5; HNF4A DNA FP: 1.3; Calb FLC: -9.5; LANA-H2A inh: 4.1; Vif TR-FRET: -1.5%

Results for Cc1sc(-n2c(C)cc(C=O)c2C)c(C(=O)O)c1C ?
RanGTP-Impb inh: 0.0; Beta2AR agonist: 4.5; HNF4A DNA FP: -2.9; Calb FLC: -18.4; LANA-H2A inh: 0.0; Vif TR-FRET: 10.3%; ALR inh: -1.9

Results for O=c1c2ccccc2nc2c3ccccc3c(NCCO)nn12 ?
RanGTP-Impb inh: 2.7; Beta2AR agonist: -10.7; HNF4A DNA FP: 0.0; Calb FLC: 2.3; LANA-H2A inh: -2.3; Vif TR-FRET: -15.5%; ALR inh: -1.5

What do the screens show for `Cn1c(=O)n(C)c2cc(NC(=O)c3ccc(F)cc3)ccc21`?
RanGTP-Impb inh: 0.7; Beta2AR agonist: 9.9; HNF4A DNA FP: 3.6; Calb FLC: 1.6; LANA-H2A inh: 1.1; ALR inh: -3.0

Results for CCn1c(COc2ccc(C)cc2)nnc1SCc1nc2ccccc2[nH]1 ?
RanGTP-Impb inh: -3.8; Beta2AR agonist: -6.6; HNF4A DNA FP: 2.6; Calb FLC: -7.2; LANA-H2A inh: -1.2; Vif TR-FRET: -3.1%; ALR inh: -4.1

What do the screens show for `CC1CCCCC12NC(=O)N(Cc1cc(=O)n3ccsc3n1)C2=O` (configuration not stated)?
RanGTP-Impb inh: 1.0; Beta2AR agonist: -15.6; HNF4A DNA FP: -9.3; Calb FLC: -4.5; LANA-H2A inh: 9.1; Vif TR-FRET: 3.4%; ALR inh: -5.8

Results for COc1ccc(C)cc1NC(=O)COC(=O)C1CC1 ?
RanGTP-Impb inh: 2.2; Beta2AR agonist: -1.2; HNF4A DNA FP: -2.5; Calb FLC: 5.1; LANA-H2A inh: 2.3; Vif TR-FRET: -3.9%; ALR inh: -5.3

Looked up one by one from above:
What do the screens show for `CC1CCCCC12NC(=O)N(Cc1cc(=O)n3ccsc3n1)C2=O` (configuration not stated)?
RanGTP-Impb inh: 1.0; Beta2AR agonist: -15.6; HNF4A DNA FP: -9.3; Calb FLC: -4.5; LANA-H2A inh: 9.1; Vif TR-FRET: 3.4%; ALR inh: -5.8

What do the screens show for `COc1ccc(C(=O)Nc2cc(C(=O)O)cc(C(=O)O)c2)cc1Cl`?
RanGTP-Impb inh: -5.2; Beta2AR agonist: -4.9; HNF4A DNA FP: -4.9; Calb FLC: -5.3; LANA-H2A inh: -4.1; Vif TR-FRET: -1.5%; ALR inh: 1.8

Results for COc1ccc(C)cc1NC(=O)COC(=O)C1CC1 ?
RanGTP-Impb inh: 2.2; Beta2AR agonist: -1.2; HNF4A DNA FP: -2.5; Calb FLC: 5.1; LANA-H2A inh: 2.3; Vif TR-FRET: -3.9%; ALR inh: -5.3
